MgrA DNA FP = alters Staphylococcus aureus MgrA binding to DNA. inhibition, %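 (about 10 µg/mL by stock and volumes)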. 84,000 tested, 0.13% active. fluorescence polarization;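 active means above 50% in either of two replicates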;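 further: 0% = protein plus DNA without compound and 100% = DNA alone without protein; higher means less MgrA bound to DNA so lower polarization; one replicate is shown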
S aureus helic = blocks Staphylococcus aureus DNA helicase. AID 485395. purified S. aureus helicase, fluorescence unwinding assay; about half of the hits fall short of the stated cut. 120,000 tested, 0.05% active. inhibition, %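 (tested at about 80 µM)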;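 active means both duplicates at 50% or more, or one of them with a favoured structure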;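 further: 0% = mean of negative control wells and 100% = mean of positive control wells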
Starred values were filed as active, the others as inactive. This is a subset (hit frequency here may not be typical).

Screening OC(CSc1ccc(F)cc1)CN1CCN(C(c2ccccc2)c2ccccc2)CC1 (stereo not given) returned MgrA DNA FP -2.2.
Screening Cc1ccc2nc3c(cc(C(=O)NCCN4CCOCC4)c(=N)n3CC3CCCO3)c(=O)n2c1 (stereo not given) returned MgrA DNA FP 3.6 and S aureus helic 20.
`CC(=O)Nc1ccc(C(F)(F)F)cc1` gave MgrA DNA FP 4.0.
For CN1CCN(NC(=O)COc2ccc(C#N)cc2)CC1 the results were S aureus helic -16.
CCCn1nc(C(=O)Nc2nc3ccccc3[nH]2)c2ccccc2c1=O was read as S aureus helic 6.
Cc1ccc(S(=O)(=O)/N=C(\N)Nc2nc(C)c3ccccc3n2)cc1 was read as S aureus helic -19.
CCOC(=O)c1ccc(NC(=O)CN2CCN(C(=O)c3ccco3)CC2)cc1 was read as MgrA DNA FP 6.4 and S aureus helic 4.
For c1ccc(CNC2CC2)nc1 the results were MgrA DNA FP 3.5 and S aureus helic 10.
For CC1CC(O)(CC(O)(c2ccccc2)c2ccccc2)C(C)CN1C (stereo not given) the results were MgrA DNA FP 4.5 and S aureus helic 4.
For CC(C)Cn1c(NC(=O)NC(C)(C)C)c2ccccc2nc1=O the results were S aureus helic -1.
`Cc1cccc(Nc2ccc(NCc3ccccc3)nn2)c1` gave S aureus helic -17.
`COC(=O)c1sccc1S(=O)(=O)Nc1ncc(C)cc1Br` gave MgrA DNA FP -0.4.
`O=C(C1CCCCC1)N1CCN(c2ncnc3c2cnn3-c2ccccc2)CC1` gave MgrA DNA FP -0.9 and S aureus helic 6.
For Cc1ccc(Sc2ncccc2NC(=O)c2cccc3ccccc23)cc1 the results were MgrA DNA FP -1.4.
CC1=C(C(=O)Nc2ccccc2)C(c2ccccc2)NC(=O)N1 (stereo not given) was read as MgrA DNA FP 0.1 and S aureus helic 2.
CC(C)c1ccc(NNC(=O)C2CCC2)cc1 was read as S aureus helic 6.
For CC(C)(C)OC(=O)N1CCC[C@H]1C(=O)N1CCN(c2ccccc2)CC1 the results were S aureus helic -9.
For Cc1nnc(SCc2nnc(-c3ccccc3)o2)o1 the results were MgrA DNA FP 4.2 and S aureus helic 4.
`CN1CCCC(CC2c3ccccc3Sc3ccccc32)C1` (stereo not given) gave MgrA DNA FP 4.5.
Screening Cc1ccc(NC(=O)C2=C(N)C(C(=O)Nc3c(F)c(F)c(F)c(F)c3F)SC2=NCc2ccco2)c(C)c1 (stereo not given) returned S aureus helic -9.

A draw from above in order of heavy-atom count, low to high:
For c1ccc(CNC2CC2)nc1 the results were MgrA DNA FP 3.5 and S aureus helic 10.
CC(C)c1ccc(NNC(=O)C2CCC2)cc1 was read as S aureus helic 6.
For Cc1nnc(SCc2nnc(-c3ccccc3)o2)o1 the results were MgrA DNA FP 4.2 and S aureus helic 4.
`COC(=O)c1sccc1S(=O)(=O)Nc1ncc(C)cc1Br` gave MgrA DNA FP -0.4.
`CN1CCCC(CC2c3ccccc3Sc3ccccc32)C1` (stereo not given) gave MgrA DNA FP 4.5.
CC1=C(C(=O)Nc2ccccc2)C(c2ccccc2)NC(=O)N1 (stereo not given) was read as MgrA DNA FP 0.1 and S aureus helic 2.
For CC1CC(O)(CC(O)(c2ccccc2)c2ccccc2)C(C)CN1C (stereo not given) the results were MgrA DNA FP 4.5 and S aureus helic 4.
CCCn1nc(C(=O)Nc2nc3ccccc3[nH]2)c2ccccc2c1=O was read as S aureus helic 6.
For Cc1ccc(Sc2ncccc2NC(=O)c2cccc3ccccc23)cc1 the results were MgrA DNA FP -1.4.
CCOC(=O)c1ccc(NC(=O)CN2CCN(C(=O)c3ccco3)CC2)cc1 was read as MgrA DNA FP 6.4 and S aureus helic 4.
`O=C(C1CCCCC1)N1CCN(c2ncnc3c2cnn3-c2ccccc2)CC1` gave MgrA DNA FP -0.9 and S aureus helic 6.
Screening Cc1ccc(NC(=O)C2=C(N)C(C(=O)Nc3c(F)c(F)c(F)c(F)c3F)SC2=NCc2ccco2)c(C)c1 (stereo not given) returned S aureus helic -9.

The list continues.
Screening Cc1c(Br)cc2nsnc2c1C returned MgrA DNA FP -2.2.
CCn1cc(C(=O)N2CCN(Cc3ccc4c(c3)OCO4)CC2)c2cc(OC)c(OC)cc2c1=O was read as S aureus helic -19.
COc1cccc(/C=N/NC(=O)CSc2nnnn2-c2ccccc2)c1 was read as S aureus helic 32.
`Cc1c(C(=O)N2CCCC2)c(S(=O)(=O)N2CCc3ccccc32)c(C)n1C` gave S aureus helic 2.
For CCC(=O)OCC(=O)Nc1ccc2c(c1)c1ccccc1n2CC the results were S aureus helic 0.
Screening COc1ccccc1N1CCN(CCCNS(=O)(=O)c2ccc3c(c2)C(C)(C)C(=O)N3C)CC1 returned S aureus helic 1.
`CCN1CCN(C(=O)c2ccc(Cn3c(=O)[nH]c4cc(OC)c(OC)cc4c3=O)cc2)CC1` gave S aureus helic 4.
Cc1oc(-c2ccc(Cl)cc2)nc1CN1CCC(C(=O)N2CCc3ccccc3C2)CC1 was read as S aureus helic 8.
`Cc1cc(NC(=O)c2cc(-c3ccc(Br)cc3)nc3ccccc23)no1` gave MgrA DNA FP 0.0.
For CN(CC(=O)Nc1ccc2c(c1)OCCO2)S(=O)(=O)/C=C/c1ccccc1 the results were S aureus helic 11.
`Cc1cccc(N2C(=S)NC3c4cc(Cl)cc(Cl)c4OC2(C)C3C(=O)N(C)C)c1` (stereo not given) gave MgrA DNA FP 2.8 and S aureus helic -10.
`CC1(C)Cc2c(sc3c2c(=O)n(-c2ccccc2)c2nnnn32)CO1` gave S aureus helic 6.
Screening CC(=O)OC(C)(C)C#CCN1CCCC1 returned MgrA DNA FP 2.2 and S aureus helic 1.
For O=c1[nH]c(CSc2ncc(-c3ccc(F)cc3)n2Cc2ccco2)nc2ccccc12 the results were MgrA DNA FP -2.6 and S aureus helic 5.
CC(C)CC(=O)Nc1nc2ccc(S(C)(=O)=O)cc2s1 was read as MgrA DNA FP 3.1 and S aureus helic -1.
For N#CCc1ccc(OC(=O)c2cccnc2)cc1 the results were MgrA DNA FP 0.1.
Screening CC1CC(C)CN(C(=O)COC(=O)c2cccnc2Nc2ccccc2F)C1 (stereo not given) returned S aureus helic 0.
`CC(C)(C)C(=O)NCC(c1cccs1)N1CCOCC1` (stereo not given) gave MgrA DNA FP -0.2 and S aureus helic -29.
`CNC(=O)NC(=O)CSc1nnc(Cc2ccccc2)n1-c1ccc(Cl)cc1` gave MgrA DNA FP 0.5.
For Cc1ccc(C(=O)OCC(=O)c2c[nH]c3ccccc23)cc1 the results were MgrA DNA FP 1.1 and S aureus helic -8.
COc1ccc(CN2CC(C(=O)N3CCn4c(nc5ccccc54)C3)CC2=O)cc1 (stereo not given) was read as MgrA DNA FP 8.8 and S aureus helic -7.
`NCCN1CCc2ccccc21` gave MgrA DNA FP -2.5 and S aureus helic 2.
O=C1Nc2ccc(Cl)cc2/C1=C/c1ccc2c(c1)OCO2 was read as MgrA DNA FP -1.2 and S aureus helic 19.
`O=C(c1ccco1)N1CCN(Cc2cccc(C(F)(F)F)c2)CC1` gave MgrA DNA FP 0.0 and S aureus helic 6.
For COC(=O)C1=C(C)NC2=C(C(=O)CCC2)C1c1ccc(N(C)C)cc1Cl (stereo not given) the results were MgrA DNA FP -1.2.
C/C=C(\C)CN1CCN(CCOCCO)CC1 was read as MgrA DNA FP 1.1 and S aureus helic 7.
For CCN(CC(=O)Nc1ccc2c(c1)OCCO2)c1nnnn1-c1ccccc1 the results were S aureus helic -9.
For O=C(OCc1nnc(-c2ccccc2)o1)c1ccc2c(=O)n3c(nc2c1)CCCCC3 the results were S aureus helic 9.
`NC(N)=NCCNS(=O)(=O)c1cccc2cnccc12` gave MgrA DNA FP 0.2.
For CC1=C(C(=O)OCc2ccccc2)C(c2ccccc2)N(C)C(=O)N1C (stereo not given) the results were S aureus helic 12.
`CCCCCCCc1c(C#N)c(N)[nH]c(=S)c1C#N` gave S aureus helic 1.
`CC1(C)CC(=O)C(c2c[nH]c3ccccc23)C(=O)C1` gave MgrA DNA FP -6.0 and S aureus helic -7.
`CNc1ccccc1C(C)(C)c1ccn[nH]1` gave MgrA DNA FP -1.1 and S aureus helic -17.
CC(C)(C)NC1=C(C#N)C(=O)NC(c2ccccc2O)S1 (stereo not given) was read as MgrA DNA FP -0.1.
Screening O=C(Cc1c(F)cccc1Cl)NC(=O)NCCc1c(F)cccc1Cl returned MgrA DNA FP 0.2.
Screening C#CCN1C(=O)S/C(=C/c2cc(C)n(CC)c2C)C1=O returned MgrA DNA FP 0.5 and S aureus helic 2.
Screening Cc1ccc(NC(=O)c2cccc(N(C)C)c2)cc1NC(=O)c1ccc(O)cc1 returned MgrA DNA FP 0.8.
Screening CCc1ccc(/C=C2/C(=O)N(C)C(=S)N2C)cc1 returned MgrA DNA FP 1.2 and S aureus helic 11.
Screening CCOc1ccc(S(=O)(=O)Nc2ncccc2C)cc1 returned MgrA DNA FP 0.9 and S aureus helic -1.
For Cc1cc(NC(=O)c2sc(Nc3ccccc3F)nc2N)no1 the results were S aureus helic 11.
Screening COC(=O)C(C)n1ncc2ccccc2c1=O (stereo not given) returned S aureus helic 10.
CC(=O)NCCOc1c(C)cc(S(N)(=O)=O)cc1C was read as S aureus helic -7.
Cc1ccc(CNc2ccc3c(c2)ncn3C)cc1 was read as S aureus helic 10.
Screening c1csc(-c2nc3cnccn3c2NC2CCCCC2)c1 returned MgrA DNA FP 2.5 and S aureus helic 12.
COc1ccc(CNC(=O)c2nc3ncccn3n2)cc1 was read as MgrA DNA FP -6.3 and S aureus helic 8.
Screening CCc1ccccc1NC(=O)CN1CCN(Cc2ccccc2C)S1(=O)=O returned S aureus helic 8.
O=C(NCCOc1ccccc1)c1n[nH]c(=O)c2ccccc12 was read as MgrA DNA FP -0.6 and S aureus helic 0.
For Cc1nc2ccccc2c(=O)n1/N=C/c1cccs1 the results were S aureus helic -4.
Screening CNc1nc(-c2ccccc2)[n+](-c2ccccc2)s1 returned MgrA DNA FP 14 and S aureus helic -25.
CCN(CC)C(=O)c1ccc(Oc2nnnn2-c2ccccc2)c(OC)c1 was read as MgrA DNA FP 4.8 and S aureus helic 6.
`CN(C)C(=O)CNCC1CCCO1` (stereo not given) gave MgrA DNA FP 5.4 and S aureus helic 6.
O=C(OCC(=O)C12CC3CC(CC(C3)C1)C2)c1ccc(-n2cnnn2)cc1 was read as S aureus helic -5.
For O=C(Nc1ccccc1)Nc1cc(N2CCOCC2)ncn1 the results were S aureus helic -5.
For Cc1ccc(C(C)C)c(OCC(=O)/C=C2\Sc3ccccc3N2C)c1 the results were MgrA DNA FP 2.5 and S aureus helic 0.
CC(C)(C)C1CCC(NN2CCOCC2)CC1 (stereo not given) was read as MgrA DNA FP -1.6 and S aureus helic 20.
For O=C(/C=C/c1cccs1)Nc1ccc(Br)cn1 the results were MgrA DNA FP -0.6 and S aureus helic 20.
COc1cc(/C=C2\NC(=O)NC2=O)ccc1O was read as MgrA DNA FP 0.1.
For CCC(C(=O)Nc1ccc(OC)c(OC)c1)n1c(C)c2cnn(-c3ccccc3)c(=O)c2c1C (stereo not given) the results were MgrA DNA FP -1.5 and S aureus helic 6.
`CCOc1ccc(/C=N/N2C(C)CCCC2C)cc1` (stereo not given) gave S aureus helic -12.
`O=C(CNc1ccccc1)NN=C1CCCC1` gave S aureus helic 4.
For c1csc(CN2CCN(c3nc(CN4CCOCC4)nc4sc5c(c34)CCC5)CC2)c1 the results were S aureus helic -4.
For CS(=O)(=O)N1CCCC(C(=O)NC2CCCC2)C1 (stereo not given) the results were MgrA DNA FP 2.5 and S aureus helic 5.
`Cc1cc(-c2ccccc2)nc2oc3c(c12)NC(=O)CN(c1ccccc1)C3=O` gave MgrA DNA FP 2.4.
`C=CCNC(=O)c1c(-c2ccccc2Cl)noc1C` gave MgrA DNA FP 0.8.
`O=C(Nc1ccc(S(=O)(=O)Nc2nccs2)cc1)c1sc2cc(Cl)ccc2c1Cl` gave MgrA DNA FP -0.3.
For O=C(CSc1nnc2ccccn12)c1ccccc1 the results were MgrA DNA FP 0.0 and S aureus helic 8.
O=C(O)CCc1ccc(-c2cccs2)n1-c1cccc(Br)c1 was read as S aureus helic -16.
For COc1ccc(/C=C/C(O)=C2/C(=O)NC34CCCCC3C2c2ccccc2O4)c(OC)c1OC (stereo not given) the results were MgrA DNA FP 3.6 and S aureus helic 0.
CC(C)(C)c1ccc(S(=O)(=O)N=S2CCN(c3ncc(C(F)(F)F)cc3Cl)CC2)cc1 was read as S aureus helic 21.
`Cc1cc(C(=O)N(C)c2ccccc2)on1` gave S aureus helic 4.
CCOC(=O)c1c(O)c2cccc3c2n(c1=O)CCC3 was read as S aureus helic -18.
CCN(CC)S(=O)(=O)c1ccc(C(=O)Oc2coc(CSc3ncccn3)cc2=O)cc1 was read as S aureus helic 16.
CNC(=S)Nc1ccc(C)c(NC(=S)NC)c1 was read as S aureus helic 1.
For COC(=O)CNc1c(-c2ccccc2)nc2ccccn12 the results were MgrA DNA FP 1.7 and S aureus helic 7.
Screening O=C1Oc2ccccc2C2c3sc(=O)[nH]c3SC(c3ccccc3)C12 (stereo not given) returned S aureus helic 12.
Screening O=C(NN=C1C2CC3CC(C2)CC1C3)c1cccc(O)c1 returned S aureus helic 22.
CC1CCN(C(=O)/C=C\c2ccccc2)CC1 was read as MgrA DNA FP -0.9 and S aureus helic 9.
N/C(COc1ccc(-c2nnco2)cc1)=N\OC(=O)c1cccc(C(F)(F)F)c1 was read as S aureus helic -6.
For c1ccc(-n2nnnc2-c2nc3ccccc3[nH]2)cc1 the results were S aureus helic -5.
CC(C)(COC(=O)c1ccc([N+](=O)[O-])o1)Nc1ccc(C(F)(F)F)cc1[N+](=O)[O-] was read as MgrA DNA FP -0.2.
OC(COC(C(F)(F)F)C(F)(F)F)CN1CCN(c2cccc(C(F)(F)F)c2)CC1 (stereo not given) was read as S aureus helic 21.
O=C(Nc1nc2ccccc2[nH]1)C1CC1 was read as S aureus helic 8.
`O=C(O)c1cc(C23CC4CC(CC(C4)C2)C3)nc2ccc(Br)cc12` gave MgrA DNA FP 1.5 and S aureus helic 3.
For C=CCN(CC=C)C(=O)c1c(-c2c(Cl)cccc2Cl)noc1C the results were MgrA DNA FP -2.0.
